Bioassay records as filed in PubChem BioAssay.
StopGo reporter – FMDV 2A StopGo reporter, luciferase signal; human cells with a luciferase reporter of 2A StopGo recoding; control for the full effect not named in the record; Potency, µM (highest dose often 57.9 µM), for the others: at the highest dose signal change, negative = less light; hit rate 1.2% among 410,000; AID 1159524; active = well fitted falling curve with a large enough effect; inconclusive = small, poorly fitted or top-dose-only effect; inactive = no such curve, though single readings can be large or run the other way; tested in HEK293T cells; further: on the % scale 0 is the no-effect control and ±100 the full control effect; nearly all actives have a fitted effect of over 45% in size; luciferase light after 4 h
SARS PLP yeast – inhibitors of SARS-CoV papain-like protease in yeast | hit rate 0.19% among 330,000 | S. cerevisiae expressing SARS-CoV PLpro, growth rescue; control for the full effect not named in the record | Potency, µM (doses to about 32.9 µM), for the others: at the highest dose activity, positive = growth rescue | AID 485353; active means well fitted rising curve with a large enough effect; inconclusive means small, poorly fitted or top-dose-only effect; inactive means no such curve, though single readings can be large or run the other way; further: 0% is about no effect; nearly all actives have a fitted effect of over 55% in size; growth read by luminescence after 48 h
Marburg entry inh – blocks Marburg virus binding to or entry into cells. AID 540276. Marburg virus pseudotyped entry inhibition, cell reporter; control for the full effect not named in the record; about a third of the inactives were read at about 46 µM. hit rate 1.8% among 300,000. Potency, µM (series often up to 37.8 µM), without a hit: at the top dose activity change, negative = inhibition, hits mostly inhibitors; active = well fitted inhibition curve with a large enough effect; inconclusive = small, poorly fitted or top-dose-only effect, or effect the other way; inactive = flat fitted curve, though single readings scatter; tested in HEK293 cells; about a fifth of its hits are not listed in these tables; further: on the % scale 0 is the no-effect control and ±100 the full control effect; luciferase read-out
Cruzain inh Det – blocks cruzain activity in presence of Triton detergent; P25779; purified cruzain, Z-FR-AMC fluorescence, 0.01% Triton; Potency, µM, for the others: max response, negative = inhibition, actives largely listed as inhibitors; hit rate 0.43% among 200,000; AID 1478;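 further: plate controls were neutral wells for no effect and buffer without enzyme for full effect; nearly all actives have a fitted effect of over 40% in size; top concentration of the series not given in the record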
Target sequence (P25779 123-467 limits assumed): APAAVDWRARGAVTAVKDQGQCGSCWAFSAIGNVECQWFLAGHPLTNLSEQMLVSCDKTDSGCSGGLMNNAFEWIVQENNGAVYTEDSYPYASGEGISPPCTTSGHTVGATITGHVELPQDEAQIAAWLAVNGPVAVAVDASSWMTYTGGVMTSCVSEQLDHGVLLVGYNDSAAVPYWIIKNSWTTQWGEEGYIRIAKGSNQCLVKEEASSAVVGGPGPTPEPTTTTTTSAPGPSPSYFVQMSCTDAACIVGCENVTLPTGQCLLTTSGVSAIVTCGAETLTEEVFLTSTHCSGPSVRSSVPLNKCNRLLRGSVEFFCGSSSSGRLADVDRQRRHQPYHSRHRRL
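Enzyme 1.5 nM, Z-FR-AMC 2 uM, NaOAc 100 mM pH 5.5, DTT 5 mM, Triton X-100 0.01%; 15 min RT compound preincubation; kinetic ex360/em450, 60 s delta.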
NS1 inh – influenza NS1 inhibition; Potency, µM (highest dose often 46.1 µM), for inactives: top-dose activity, positive = more growth; AID 2326; S. cerevisiae slowed by influenza A NS1, growth recovery by OD600; hit rate 0.4% among 270,000; active means well fitted rising curve with a large enough effect; inconclusive means small, poorly fitted or top-dose-only effect; inactive means no such curve, though single readings can be large or run the other way; further: nearly all actives have a fitted effect of over 50% in size
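A cell-based growth assay was used: compounds that relieve NS1-induced slow growth of budding yeast raise OD600. Assay medium was yeast nitrogen base with ammonium sulphate and -URA supplement, pH 6.0, with 2% galactose.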
RE007 growth inh – less growth of the S. pombe RE007 Vpr strain; S. pombe RE007 Vpr strain, BacTiter-Glo ATP luminescence, 24 h; control for the full effect not named in the record; Potency, µM (doses to about 92.2 µM), for inactives: top-dose activity change, negative = less growth; hit rate 0.21% among 360,000; active = well fitted falling curve with a large enough effect; inconclusive = small, poorly fitted or top-dose-only effect; inactive = no such curve, though single readings can be large or run the other way;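 further: on the % scale 0 is the no-effect control and ±100 the full control effect; nearly all actives have a fitted effect of over 50% in size; the assay follows cell death caused by Vpr and the record does not say whether a fall means rescue or toxicity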
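Fission yeast RE007 carrying one integrated HIV-1 vpr copy, seeded at OD 0.01 in PMG+AL medium with 23 nL pinned compound. Grown 24 h at 30 degrees; viability read by BacTiter-Glo luminescence after 5 min.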
Cruzain inh noDet – inhibitors of Trypanosoma cruzi cruzain without detergent; P25779; purified cruzain, Z-FR-AMC fluorescence, no detergent; Potency, µM, inactives show max response, negative = inhibition, actives largely listed as inhibitors; hit rate 2.3% among 200,000; AID 1476;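 further: plate controls were enzyme without inhibitor for no effect and buffer without enzyme for full effect; nearly all actives have a fitted effect of over 40% in size; top concentration of the series not given in the record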
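Detergent-free condition (0.00005% Triton X-100) in acetate buffer pH 5.5 with DTT. 1.5 nM enzyme and compound were pre-mixed 15 min, then 2 uM Z-FR-AMC substrate added; reaction progress from fluorescence change between first and third reads (60 s).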
LASV entry inh – inhibitors of Lassa virus binding or cell entry; Lassa virus pseudotype entry inhibition, cell reporter; control for the full effect not named in the record; Potency, µM (series often up to 37.9 µM), for inactives: top-dose activity change, negative = inhibition, most hits filed as inhibitors; hit rate 1.2% among 300,000; active means well fitted inhibition curve with a large enough effect; inconclusive means small, poorly fitted or top-dose-only effect, or effect the other way; inactive means flat fitted curve, though single readings scatter; tested in HEK293 cells; further: on the % scale 0 is the no-effect control and ±100 the full control effect; nearly all actives have a fitted effect of over 50% in size; luciferase read-out
Numbers without * were called inactive; ? = inconclusive; . = no result given; & = joins results of further samples; [ ] = dose if it differs, or a comment. Unless noted, the call rests on the fitted dose curve; in most records, active means well fitted curve in the direction sought with a large enough effect; inconclusive means small, poorly fitted or top-dose-only effect, or another doubt; inactive means no such curve, though single readings can be large; an effect the other way counts as inactive or inconclusive. Potency means the concentration at half of the fitted maximal effect.

SMILES	StopGo reporter	SARS PLP yeast	Marburg entry inh	Cruzain inh Det	NS1 inh	RE007 growth inh	Cruzain inh noDet	LASV entry inh
Cn1ncc(Br)c1C(=O)Nc1ccc(F)cc1F	11%	9%	9%	-2.5%	6%	-7%	2%	-18%
Cn1nnnc1SCC(=O)Nc1cccc([N+](=O)[O-])c1	-2%	-5%	8%[46.1 µM]	.	.	9%	.	12%
NC(=O)Cn1cc(/C=N\NS(=O)(=O)c2cccc([N+](=O)[O-])c2)c2ccccc21	100%[activator]	.	6%	.	-1%	-9%	.	0%
Cn1cnnc1SCC(=O)NC1CCCCC1	5%	1%	8%[46.1 µM]	.	.	-7%	.	14%
Cc1ccc(-n2nc3c(=O)n(CCCC(=O)N4CCCCC4)nc(C)c3c2C)cc1	-4%	-3%	.	.	-1%	-4%	.	.
O=C(CCNS(=O)(=O)c1cccs1)Nc1ccccc1F	25%	?	-1%	-2.2%	-1%	0%	20%	5%
COCCNCCOCCOc1cccc(OC)c1	-20%	5%	0%	1.0%	2%	-3%	-7%	-3%
CCCCN(CCCC)c1cc(C)nc(-c2ccccc2O)n1	-18%	-17%	?	-14%	-15%	7%	0%	-22%
O=C(c1ccco1)N1CCN(S(=O)(=O)c2ccc(Br)s2)CC1	.	-12%	7%	-3.0%	-7%	-1%	2%	0%
CCN(C(=O)Cn1cnc2c(nc3n2CCCCC3)c1=O)c1cccc(Cl)c1	0%	2%	.	.	0%	7%	.	.
COc1ccccc1N1CCN(S(=O)(=O)c2ccc3c(c2)n(C)c(=O)n3C)CC1	?	1%	0%[46.1 µM]	.	2%	-4%	.	-13%
CC(Sc1ccc(S(=O)(=O)N2CCCCCC2)cn1)C(N)=O (stereo not given)	-15%	-9%	-8%	.	.	-2%	.	0%

Part of the list above, limited to Marburg entry inh, StopGo reporter and RE007 growth inh.
structure	Marburg entry inh	StopGo reporter	RE007 growth inh
Cc1ccc(-n2nc3c(=O)n(CCCC(=O)N4CCCCC4)nc(C)c3c2C)cc1	.	-4%	-4%
O=C(CCNS(=O)(=O)c1cccs1)Nc1ccccc1F	-1%	25%	0%
COCCNCCOCCOc1cccc(OC)c1	0%	-20%	-3%

Carrying on:
SMILES	StopGo reporter	SARS PLP yeast	Marburg entry inh	Cruzain inh Det	NS1 inh	RE007 growth inh	Cruzain inh noDet	LASV entry inh
Cc1ccc(CNC(=O)C2CCCN(S(=O)(=O)c3cccnc3)C2)cc1 (stereo not given)	-8%	2%	-1%[46.1 µM]	1.8%	-2%	8%	14%	1%
Cc1ccc(C(C)C)c(OCC(=O)NN=C2CCCC(=O)C2)c1	-9%	-6%	0%[46.1 µM]	.	.	-11%	.	-16%[46.1 µM]
CCc1ccccc1NC(=O)C(=O)NCC(c1cccnc1)N1CCc2ccccc21 (stereo not given)	?	.	.	-1.0%	.	.	-1%	5%[46.1 µM]
CCOC(=O)C(NC(=O)CC)(Nc1sc(C)c(CC)c1C#N)C(F)(F)F (stereo not given)	-6%	-10%	9%	1.6%	-2%	6%	3%	-16%
CCOC(=O)c1c(C)c(C(=O)NCc2ccccn2)c(C)n1C	3%	-2%	10%	4.5%	2%	12%	9%	6%
Cc1ccc(N2CC(NC(=O)Cc3ccc(F)cc3)CC2=O)cc1 (stereo not given)	-19%	.	.	-1.0%	.	.	-3%	2%[46.1 µM]
O=C(NCCCn1ccnc1)c1cc2c(ccc3ccccc32)o1	3%	-2%	6%[46.1 µM]	.	.	10%	.	7%
c1ccc(Cn2nnc3c(N4CCc5ccccc54)ncnc32)cc1	7%	?	4%	-5.6%	-1%	13%	?	10%
CCOC(=O)N1CCN(CC(=O)Nc2sc(CC)cc2C(=O)c2ccc(OC)cc2)CC1	?	0%	?	.	16%	2%	.	?
CC(C)C(=O)Nc1ccc2c(c1)nc(CCN1CCCCC1)n2C	-12%	-3%	.	.	2%	2%	.	.
COc1cc(C)nc(N(Cc2ccccc2)S(=O)(=O)c2ccc(C)cc2)n1	-11%	-2%	.	.	4%	-1%	.	.
Cc1nnc(SC/C=C/c2ccccc2)n(N)c1=O	-10%	0%	-18%	.	.	-3%	.	-28%
COc1ccc(S(=O)(=O)NNC(=O)C2COc3ccccc3O2)cc1[N+](=O)[O-] (stereo not given)	27%	4%	-14%[46.1 µM]	.	.	3%	.	8%
Cc1cc(=O)[nH]c(COc2ccccc2)n1	0%	-1%	4%&4%	3.2%	3%	-1%	-1%	1%
CC(C)(O)C#Cc1ccc(C(=O)NC2CCCCC2)s1	66%[activator]	0%	?	.	-2%	-18%	.	.
CSCCC(NS(=O)(=O)c1ccccc1F)C(=O)N1CCCCCCC1 (stereo not given)	3%	-3%	18%	.	2%	-8%	.	-12%
CC1(C)O[C@@H]2C[C@H]3[C@@H]4CCC5=CC(=O)C=C[C@]5(C)[C@@]4(F)[C@@H](O)C[C@]3(C)[C@]2(C(=O)CO)O1	0%	-3%	-22%	0.4%	-19%	2%	-3%	3%
CCN(CC)c1ccc(SS(=O)(=O)O)cc1	-15%&0%	-3%&18%	3%&2%	-7.7%&-12%	-13%&4%	-16%&-26%	-6%&-13%	?
Cc1cccc(COc2ncnc3nc[nH]c23)c1	-4%	14%	-2%	-1.5%	1%	39%	-13%	?
Cc1cc(C)n(Cc2ccc(Cl)cc2Cl)c(=O)c1S(=O)(=O)c1ccccc1	-18%	3%	0%	-8.8%	2%	4%	-14%	?
Cc1ccc(CSCC2Nc3ccc(C(=O)N4CCN(c5ccc(F)cc5)CC4)cc3NC2=O)cc1 (stereo not given)	-12%	0%	.	.	14%	?	.	.
Cc1ccc(/C=N/n2c(-c3ccco3)n[nH]c2=S)s1	-8%	16%	?	2.6%	14%	-3%	-5%	19%
COc1cc(/C=C2\CC/C(=C\c3cc(OC)c(OC)c(OC)c3)C2=O)cc(OC)c1OC	?	3%	?	-5.7%	0%	4%	?	-22%
Cc1cc(OCC(=O)O/N=C(\N)c2ccccc2)cc(C)c1Cl	.	-3%	20%	-8.1%	9%	-1%	-8%	23%

Looked up one by one from the entries so far, 2 records:
SMILES	StopGo reporter	SARS PLP yeast	Marburg entry inh	Cruzain inh Det	NS1 inh	RE007 growth inh	Cruzain inh noDet	LASV entry inh
Cc1ccc(CSCC2Nc3ccc(C(=O)N4CCN(c5ccc(F)cc5)CC4)cc3NC2=O)cc1 (stereo not given)	-12%	0%	.	.	14%	?	.	.
COc1ccc(S(=O)(=O)NNC(=O)C2COc3ccccc3O2)cc1[N+](=O)[O-] (stereo not given)	27%	4%	-14%[46.1 µM]	.	.	3%	.	8%

Remaining list, next part.
SMILES	StopGo reporter	SARS PLP yeast	Marburg entry inh	Cruzain inh Det	NS1 inh	RE007 growth inh	Cruzain inh noDet	LASV entry inh
O=C(CSCc1cnn(-c2ccccc2)c1-n1cccc1)NCCN1CCOCC1	3%	1%	-16%	2.2%	3%	1%	5%	-8%
COc1ccc(Br)cc1S(=O)(=O)N(CC(=O)N1CCN(C)CC1)c1ccccc1	-14%	3%	-11%	.	-5%	-17%	.	-20%
COc1ccc(N2CCN(C3CCCN(S(=O)(=O)c4ccc(C)cc4C)C3)CC2)cc1 (stereo not given)	22%	3%	.	.	8%	-9%	.	.
Cc1ccc(NC(=O)c2cc(Cl)nc3ccccc23)cc1	-15%	-3%	?	-3.1%	-11%	-8%[3.69 µM]	-10%	-7%
N#Cc1cn(CCOc2ccccc2F)c2ccccc12	5%	-26%	7%	-5.9%	-44%	-12%	-9%	14%
O=C(NC(=S)Nc1ccc(N2CCOCC2)c(Cl)c1)c1cncc(Br)c1	-12%	-20%	?	-3.7%	26%	-11%	-9%	0%
CCC(C)(C)NC(=O)C(c1cccnc1)N(C(=O)c1csnn1)c1ccccc1 (stereo not given)	-8%	0%	.	.	-6%	-8%	.	.
Cc1cc(=O)c2cc(Cl)ccc2[nH]1	-23%	-6%	.	-2.9%&-2.2%	-39%	-2%	-13%&-6%	.
COc1ccc(CNc2nc(SCC(=O)NCc3ccco3)nc3ccccc23)cc1	-22%	27%	?	-9.2%	0%	-10%	-3%	-19%[14.3 µM]
COCCNC(=O)C(c1ccc(C)o1)N(Cc1ccccc1)C(=O)Cn1nnc2ccccc21 (stereo not given)	26%	10%	3%&12%	1.1%	-2%	21%	28%	-11%
COCc1cc(=O)n2[nH]c(SCc3ccccc3)nc2n1	1%	-2%	0%	2.2%	-4%	13%	-13%	20%
O=C(c1cccs1)N(CCN1CCCCC1)CC1CCCN(C2CCCC2)C1 (stereo not given)	11%	-4%	.	.	?	6%	.	.
Cc1ccc(C(=O)Nc2ccccc2C(=O)O)cc1S(=O)(=O)NC1CCCCC1	0%	-3%	.	.	14µM*	-6%	.	.
CCCC(=O)OCC(=O)Nc1ccccc1C#N	-11%	11%	9%[46.1 µM]	.	.	-17%	.	24%
COc1ccc(C)c2sc(N(CCCN(C)C)C(=O)c3ccc(S(=O)(=O)N4CCc5ccccc5C4)cc3)nc12	?	.	?	.	.	5%	.	?
CCOc1cc(-c2nc3c(c(CC)nn3-c3ccccc3)c3cc(OC)c(OC)cc23)ccc1O	-21%	.	.	-0.1%	.	.	2%	1%[46.1 µM]
COc1cccc(N2CCN(S(=O)(=O)c3ccc(-n4cnnn4)cc3)CC2)c1	-9%&-11%	6%	0%&11%[46.1 µM]	-1.5%	12%	-1%	2%	-3%&4%[46.1 µM]
Cc1cc(C(=O)OCC(=O)Nc2sc3c(c2C#N)CCC(C)C3)c2ccccc2n1 (stereo not given)	5%	-7%	25%[46.1 µM]	-11%	10%	-13%	-18%	-2%
CN(C)/C=N/c1nc2nccc(-c3ccccn3)n2n1	10%	2%	?	.	.	-2%	.	-3%
O=C(CSc1ncnc2c1oc1ccccc12)Nc1cccc(C(F)(F)F)c1	-20%	4%	.	-1.9%	5%	18%	2%	.
Cc1ccc(S(=O)(=O)N/N=C/c2ccccc2O)cc1[N+](=O)[O-]	121%[activator]	0%	-11%	.	.	3%	.	?
Cc1ccc(NC(=O)CC2CS(=O)(=O)CC2CC(=O)Nc2ccc(C)c(C)c2)cc1C (stereo not given)	-10%	1%	5%	3.9%	4%	0%	6%	?
